Sfp PPTase inh: Sfp phosphopantetheinyl transferase inhibition; Potency, µM, without a hit: max response, negative = inhibition, usual class: inhibitors; 310,000 tested, 3.5% active; Q9F4F7; Biochemical Sfp PPTase activity, qHTS; AID 1490; active = well fitted inhibition curve with a large enough effect; inconclusive = small, poorly fitted or top-dose-only effect, or another doubt; inactive = no such curve, though single readings can be large or run the other way;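 note: the enzyme is Sfp with the accession as filed and its product quenches rhodamine fluorescence; potency is the fitted concentration of half-maximal effect; 0% = enzyme reaction without inhibitor and -100% = no enzyme wells; top concentration of the series not given in the record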
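Fluorescence-quenching assay: 15 nM Sfp-PPTase preincubated 15 min at room temperature with compound, then 5 uM rhodamine-CoA and 12.5 uM BHQ-2-labelled YbbR peptide added. Fluorescence (ex 525/em 598 nm) read at start and after 30 min; difference gives rate.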
TRPV1 PAM: enhances activation of the human vanilloid receptor TRPV1. Q8NER1. TRPV1-expressing cells, Fluo-8 calcium influx, capsaicin EC20 potentiation; host cell line not named in the record; control for the full effect not named in the record. potentiation, % at 8.33 µM. AID 540277. 320,000 tested, 0.02% active; active means potentiation above 80%; inconclusive means 30% to 80%; inactive means below 30%; note: 0% is about no effect
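Fluo-8 calcium influx in TRPV1-expressing cells, kinetic read (ex 480/em 520 nm). Compound added and read 3 min for agonist activity, followed by capsaicin at EC20 final and 2 min further read for enhancement.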
CtBP-E1A blk: blocks the CtBP interaction with E1A | activity change, % (test concentration not listed) | AlphaScreen GST-E1A/His-CtBP binding, 1536-well; active compounds read low; control for the full effect not named in the record | 340,000 tested, 0.49% active; in the data active means activity change below about -65%; inconclusive means about -30% to -65%; inactive means above about -30%; note: % is set by controls: 0 for no effect and ±100 for the full control effect
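In 5 uL wells, 23 nL compound meets equimolar GST-E1A and His-CtBP (5X stock 125 nM each) for 2 h, 37 °C. Beads (5X, 50 ug/mL) then 1 h, 37 °C, dark.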
Six1-Eya2 inh: blocks human Six1 binding to Eya2 | AlphaScreen GST-Six1/His-Eya2 binding, biochemical; active compounds read low; control for the full effect not named in the record | activity change, % (no concentration beside the values) | 360,000 tested, 0.56% active | AID 651725; in the data active = activity change below about -65%; inconclusive = about -30% to -65%; inactive = above about -30%; note: % is set by controls: 0 for no effect and ±100 for the full control effect
Target sequence (O00167 whole entry, looked up): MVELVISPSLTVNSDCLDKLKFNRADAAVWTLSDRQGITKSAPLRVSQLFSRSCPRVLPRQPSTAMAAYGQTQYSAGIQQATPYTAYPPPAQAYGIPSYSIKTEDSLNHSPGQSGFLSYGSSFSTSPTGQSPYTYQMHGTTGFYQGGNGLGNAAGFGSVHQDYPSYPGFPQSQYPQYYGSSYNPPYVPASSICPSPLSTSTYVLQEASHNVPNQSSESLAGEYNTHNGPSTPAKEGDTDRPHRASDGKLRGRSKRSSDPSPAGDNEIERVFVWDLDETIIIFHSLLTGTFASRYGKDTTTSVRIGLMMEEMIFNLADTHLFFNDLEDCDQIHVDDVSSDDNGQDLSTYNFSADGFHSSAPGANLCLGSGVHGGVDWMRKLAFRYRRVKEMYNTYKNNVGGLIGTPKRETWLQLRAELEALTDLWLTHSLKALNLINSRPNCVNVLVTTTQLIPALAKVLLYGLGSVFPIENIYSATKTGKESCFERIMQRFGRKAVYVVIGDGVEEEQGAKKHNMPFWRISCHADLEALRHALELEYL
Target sequence (Q15475 whole entry, looked up): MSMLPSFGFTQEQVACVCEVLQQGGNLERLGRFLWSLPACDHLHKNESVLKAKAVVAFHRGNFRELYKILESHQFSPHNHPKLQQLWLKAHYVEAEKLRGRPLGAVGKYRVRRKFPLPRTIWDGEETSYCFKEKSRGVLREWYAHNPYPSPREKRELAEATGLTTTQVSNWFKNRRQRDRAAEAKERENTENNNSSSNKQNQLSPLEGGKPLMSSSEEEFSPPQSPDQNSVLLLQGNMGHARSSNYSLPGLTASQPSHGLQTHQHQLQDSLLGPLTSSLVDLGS
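Compounds are tested against tagged Six1 and Eya2 proteins bridged by glutathione donor and nickel acceptor beads; after a one-hour incubation at 37 °C without light, AlphaScreen emission is recorded.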
D2 potentiator: potentiates the human D2 dopamine receptor allosterically; potentiation, % (test concentration not listed); DiscoveRx D2 beta-arrestin cells, luminescence, 90 min; 100% = 57 uM dopamine signal; 360,000 tested, 0.23% active; P14416; active = potentiation of 50% or more; inconclusive = 30% to 50%; inactive = 30% or less;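 note: compound concentration not given in the record; tested on top of an EC20 dose of dopamine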
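D2 cells co-treated with compound plus 50 nM dopamine (EC20) for 90 min at 37 deg C to detect potentiation. Beta-arrestin recruitment was read as enzyme-fragment luminescence after 1 h at ambient temperature. Full response was set by 57 uM dopamine.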
PINK1 modulator: modulators of PINK1 expression. PINK1 immunofluorescence, high-content cytometry, 24 h. Potency, µM (highest dose often 76.6 µM), for inactives: at the top dose activation (PINK1 increase), hits mostly activators. 410,000 tested, 0.2% active. AID 624263; active = well fitted activation curve with a large enough effect; inconclusive = small, poorly fitted or top-dose-only effect; inactive = flat fitted curve, though single readings scatter; cell line not stated here;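 note: potency is the fitted concentration of half-maximal effect; % of control where 0% means no effect; nearly all actives have a fitted effect of over 65% in size; a mitochondrial uncoupler was the plate control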
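PINK1 protein level read as immunofluorescence by microplate cytometer in a fixed, stained stable cell line after 24 h exposure to five compound concentrations, with CCCP as control.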
D2 agonist: activates the human D2 dopamine receptor. P14416. DiscoveRx PathHunter D2 beta-arrestin, luminescence, 90 min; 100% = 57 uM dopamine signal. activation, % (test concentration not listed). 360,000 tested, 0.084% active; in the data active = activation above about 40%; inconclusive = about 15% to 40%; inactive = below about 15%; note: compound concentration not given in the record; the text of the record calls up to 30% inactive
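Agonist mode: compounds alone added to overnight-plated D2 PathHunter cells for 90 min at 37 C, with 57 uM final dopamine (EC100) defining full response. Beta-arrestin recruitment detected by chemiluminescent reagent, read after 1 h at ambient temperature.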
* = called active by the depositor; ? = inconclusive; . = not tested or not shown; [ ] = dose if it differs, or a comment. Not a hit list, and some 3.7% of all compounds hit somewhere here.

Order of results: Sfp PPTase inh	TRPV1 PAM	CtBP-E1A blk	Six1-Eya2 inh	D2 potentiator	PINK1 modulator	D2 agonist
- CC(=O)c1ccc(NC(=S)N(Cc2ccccc2)C(C)C2CC2)cc1 (stereo not drawn)
 : 1%	-4	-2	-10	-4	5.2%	-6.7
- CCC(CC)C(=O)c1c[nH]c(C(=O)NCc2ccccn2)c1
 : 12%	12	2	26	0	1.8%	-5.5
- COc1cc2c(cc1NC(=O)COC(=O)[C@@H](NC(=O)c1ccccc1)C(C)C)oc1ccccc12
 : 2%	10	-1	-7	1	0.1%	0.5
- O=C1N/C(=C\c2ccc(O)cc2)C(O)=C1C=NCc1ccccc1
 : 11%	17	-6	-1	20	7.3%	0.1
- O=C(CCc1ccccc1)NNC(=O)Nc1ccc(Br)cc1
 : 0%	-10	2	0	-4	0.2%	0.8
- COc1ccc(Nc2ncnc3sccc23)c(OC)c1
 : 4%	9	0	6	2	0.4%	-1.4
- COCCN1C(=O)N[C@@H](c2cccc(C(F)(F)F)c2)[C@@H](C(=O)OC)[C@H]1C
 : 10%	.	7	3	-4	0.1%	-0.4
- O=C(Nc1nc(-c2ccccn2)cs1)c1ccc([N+](=O)[O-])o1
 : 16µM*	14	-92*	-73*	2	-1.6%	11
- COc1ccc(S(=O)(=O)N(C)C)cc1NC(=O)c1ccc(OCC2CCCO2)cc1 (stereo not drawn)
 : .	.	-7	-8	-11	2.6%	1.6
- CC(C)c1ccc(/C=C2\SC(N3CCOCC3)=NC2=O)cc1
 : -8%	3	2	2	-9	0.7%	-2.4
- COc1ccc(-c2csc(NC(=O)CSCC(=O)Nc3cc(C)on3)n2)c(OC)c1
 : .	16	6	-5	-5	?	-0.6
- CC(C)/C=C/CN1CCCC(N2CCN(c3cccc(Cl)c3)CC2)C1 (stereo not drawn)
 : 10%	?	-6	-18	0	6.0%	-3.5
- CCOC(=O)C(=O)/C(C#N)=C/Nc1ccc(F)cc1
 : -10%	4	-2	-5	-7	7.3%	-4.3
- CC(C)c1ccc(-c2cc(C(=O)N3CCOCC3)c3cc(Br)ccc3n2)cc1
 : -18%	-7	-11	10	-22	0.2%	-4.2
- O=C(CC1C(=O)NCCN1Cc1ccc(F)cc1)NCCN1CCCc2ccccc21 (stereo not drawn)
 : ?	13	.	-6	-8	-1.0%	-5.1
- CSc1ccc(-c2nc(CN3CCCCC3c3cccnc3)c(C)o2)cc1 (stereo not drawn)
 : -5%	-4	-3	6	-4	1.0%	1.9
- Cc1nn(C2CCCCC2)c(N)c1-c1ccccc1
 : 0%	-11	4	0	-27	-0.8%	-0.7
- CCCCOc1ccc(-c2nnc(-c3cc[n+](C)cc3)o2)cc1
 : 3%	-8	2	-1	-7	0.6%	-1.3
- CN(C)CCNC(=O)c1csc(Nc2cccc3ccccc23)n1
 : -13%	-12	-4	-8	-9	5.9%	5.5
- CCCCNC(=O)NC12CC3CC(CC(C3)C1)C2
 : 21%	-6	-7	2	-5	2.8%	-3.1
- Cc1nc2c(OCCC3CCCCC3)cccn2c1N(C)C(=O)CCC1CCCC1
 : .	.	-17	-16	-5	3.2%	-5.8
- COc1ccccc1NS(=O)(=O)c1cccs1
 : 11%	-8	7	7	-9	-2.7%[38.3 µM]	-0.2
- CCCC(=O)N(Cc1cc(=O)[nH]c2ccccc12)c1ccc(C)cc1C
 : -7%	-5	.	-2	-3	-0.2%	0.4
- O=[N+]([O-])c1ccc(COc2cccc(CN3CCCCC3)c2)cc1
 : .	.	-13	-15	.	4.3%	0.8
- O=C1C2CC=CCC2C(=O)N1Cc1nnc(-c2ccc(Cl)cc2)o1 (stereo not drawn)
 : 16%	-13	-5	7	-1	-0.5%	-4.3
- COc1ccc(C(=O)N2CCN(c3ccc(C(C)=O)cc3)CC2)cc1S(=O)(=O)N1CCCC1
 : .	.	-1	-2	-1	1.6%	8.9
- Cc1oc(S(=O)(=O)N(C)C)cc1C(=O)Nc1ccc(Cl)cc1
 : 20%	-19	.	8	-14	4.1%	-2.8
- NC(=O)COC(=O)c1ccccc1SCC(=O)NC1CCCCCCC1
 : .	20	-14	7	-12	1.3%	-1.3
- O=C(O)c1ccc(NS(=O)(=O)c2cccc(C(=O)Nc3cccc(C(=O)O)c3)c2)cc1
 : -1%	16	.	-6	-6	3.9%	-3.1
- CCOC(=O)C1(C)CCN1C(=O)c1ccccc1OC (stereo not drawn)
 : .	.	4	3	-1	-0.1%	-1.0
- CCc1ccc(C(CNC(=O)c2ccc3c(=O)n(-c4ccccc4F)c(=S)[nH]c3c2)N(C)C)cc1 (stereo not drawn)
 : 3%	11	2	?	-6	0.0%	-2.1
- O=C1NC2(CCCCCC2)C(=O)N1Cc1cccc([N+](=O)[O-])c1
 : 7%	11	4	1	6	0.2%	0.1
- O=C(Nc1ccc(F)cc1)NC1CCN(Cc2nnnn2Cc2ccco2)CC1
 : -1%	10	3	6	-11	-4.6%[38.3 µM]	-3.3
- Cc1cccc(C)c1NC(=O)CN(C)C(=O)COc1cccc2c1OC(C)(C)C2
 : .	8	9	-4	-4	1.2%	-2.2
- O=C(N/N=C/C(Br)=C\c1ccccc1)c1ccc2nc[nH]c2c1
 : 50µM*	-1	-77*	-20	-9	3.8%	-3.0
- CCCCNC(=O)c1onc(CSc2ccc(Cl)cc2)c1C(=O)O
 : 18%	?	2	-11	26	1.8%	1.2
- O=C(CSCc1cccc(F)c1)N1CCN(c2ccccc2)CC1
 : 10%	-23	-2	-3	-1	2.8%[38.3 µM]	1.6
- O=C(Nc1ccc(F)cc1)c1ccccc1CC[N+](=O)[O-]
 : -5%	-4	0	-2	-18	-0.3%	-7.8
- CCOC(=O)c1[nH]c(C)c(C(=O)N2CCc3c([nH]c4ccccc34)C2c2ccccn2)c1C (stereo not drawn)
 : -7%	-1	-13	-14	5	0.2%	1.5
- COC(=O)c1c(C)nn(-c2ccc(OC(F)(F)F)cc2)c1-c1snnc1C
 : 21%	.	-10	0	-1	2.7%	-1.2
- O=C(OCC(=O)N1CCCC1)c1cc(Br)ccc1Cl
 : 21%	-16	0	-2	-4	-0.3%	-4.2
- O=C(CN1C(=O)NC2(CCCC2)C1=O)Nc1nc2ccccc2[nH]1
 : .	11	-10	1	0	-1.3%	-1.8
- CC1CN(S(=O)(=O)c2cccc(C(=O)OCCOc3ccccc3)c2)CC(C)O1 (stereo not drawn)
 : .	-10	23	4	-11	0.0%	-2.4
- CCc1ccc(OCC(=O)NNC(=O)c2ccc(-n3cncn3)c([N+](=O)[O-])c2)cc1
 : .	.	-4	-11	9	4.1%	1.1
- COc1ccccc1CN1CCN(Cc2ccco2)CC1
 : ?	13	1	-4	-15	0.1%	-0.8
- O=C(CN1C(=O)NC(c2ccccc2)(c2ccccc2)C1=O)NCc1ccccc1
 : .	-8	8	2	-1	1.6%	-1.6
- CCOC(=O)CN(C(=O)CNC(=O)c1cccs1)C(C(=O)NC1CCCCC1)c1cccs1 (stereo not drawn)
 : 17%	4	-3	-1	-10	-3.0%	-3.3
- COc1ccc(/C=C/C(=O)NC(=S)Nc2ccc(S(N)(=O)=O)cc2)cc1OC
 : 15%	-17	-9	2	-4	1.6%	5.6
- COc1ccc(-n2c(SC(C)C(=O)Nc3ncc(Cl)cc3Cl)nc3ccccc32)cc1 (stereo not drawn)
 : 3%	1	0	-14	4	-1.1%	-2.0
- O=C(Cn1nnc(-c2ccccc2-n2cnnn2)n1)c1ccccc1
 : -7%	8	11	3	-1	.	-0.1
- Cc1c(OCC(=O)NCc2ccncc2)ccc2c3c(c(=O)oc12)CCCC3
 : 13%	-8	-2	1	2	3.0%	-1.4
- COc1ccc(NC(=O)CC(C)n2ccnc2)cc1 (stereo not drawn)
 : 6%	-16	-8	-2	-2	4.5%	0.1

Gathered by group, those above with an aryl methoxy group
Order of results: Sfp PPTase inh	TRPV1 PAM	CtBP-E1A blk	Six1-Eya2 inh	D2 potentiator	PINK1 modulator	D2 agonist
- COc1cc2c(cc1NC(=O)COC(=O)[C@@H](NC(=O)c1ccccc1)C(C)C)oc1ccccc12
 : 2%	10	-1	-7	1	0.1%	0.5
- COc1ccc(Nc2ncnc3sccc23)c(OC)c1
 : 4%	9	0	6	2	0.4%	-1.4
- COc1ccc(S(=O)(=O)N(C)C)cc1NC(=O)c1ccc(OCC2CCCO2)cc1 (stereo not drawn)
 : .	.	-7	-8	-11	2.6%	1.6
- COc1ccc(-c2csc(NC(=O)CSCC(=O)Nc3cc(C)on3)n2)c(OC)c1
 : .	16	6	-5	-5	?	-0.6
- COc1ccccc1NS(=O)(=O)c1cccs1
 : 11%	-8	7	7	-9	-2.7%[38.3 µM]	-0.2
- COc1ccc(C(=O)N2CCN(c3ccc(C(C)=O)cc3)CC2)cc1S(=O)(=O)N1CCCC1
 : .	.	-1	-2	-1	1.6%	8.9
- CCOC(=O)C1(C)CCN1C(=O)c1ccccc1OC (stereo not drawn)
 : .	.	4	3	-1	-0.1%	-1.0
- COc1ccccc1CN1CCN(Cc2ccco2)CC1
 : ?	13	1	-4	-15	0.1%	-0.8
- COc1ccc(/C=C/C(=O)NC(=S)Nc2ccc(S(N)(=O)=O)cc2)cc1OC
 : 15%	-17	-9	2	-4	1.6%	5.6
- COc1ccc(-n2c(SC(C)C(=O)Nc3ncc(Cl)cc3Cl)nc3ccccc32)cc1 (stereo not drawn)
 : 3%	1	0	-14	4	-1.1%	-2.0
- COc1ccc(NC(=O)CC(C)n2ccnc2)cc1 (stereo not drawn)
 : 6%	-16	-8	-2	-2	4.5%	0.1

High-throughput results as filed in PubChem BioAssay.
